Source: PubChem
S aureus helic = S. aureus DNA helicase inhibition; AID 485395; purified S. aureus helicase, fluorescence unwinding assay; about half of the hits fall short of the stated cut; 120,000 compounds, 0.05% hits; inhibition, %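 (tested at about 80 µM)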;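 active = both duplicates at 50% or more, or one of them with a favoured structure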;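 also: 0% = mean of negative control wells and 100% = mean of positive control wells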
MgrA DNA FP = alters Staphylococcus aureus MgrA binding to DNA | 84,000 compounds, 0.13% hits | inhibition, %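 (about 10 µg/mL by stock and volumes)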 | fluorescence polarization | AID 602314;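 active = above 50% in either of two replicates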;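 also: 0% = protein plus DNA without compound and 100% = DNA alone without protein; higher means less MgrA bound to DNA so lower polarization; one replicate is shown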
Numbers without * were called inactive; . = no result given; & = joins results of further samples. Some of the compounds tested, so the mix of outcomes need not match the whole.

SMILES	S aureus helic	MgrA DNA FP
O=C(NCc1ccco1)C1CCN(c2nc3ccccc3n2Cc2ccccc2F)CC1	12.0	.
COC(=O)CN1C(=O)COc2ccc(Cl)cc21	23.0	.
Cc1cc(-n2c(C)cc(/C=C/C(=O)N3CCN(Cc4cccs4)CC3)c2C)no1	-11.0	.
CC(C)(C)c1ccc(C(=O)N2CCC(C(=O)NN)CC2)cc1	-2.0	-1.1
Cc1ccc(-c2nn(C(C)(C)C)c3ncnc(N)c23)cc1	.	2.3
c1cncc(CNc2nc3ccccc3n3cnnc23)c1	14.0	0.6
Cc1[nH]c2ccccc2c1C(=O)COC(=O)c1ccncc1	-1.0	.
CCC(CO)NCC(O)Cn1c2ccccc2c2ccccc21 (stereo unspecified)	-20.0	.
CCOC(=O)c1c(C)c(-c2ccccc2)n(CC(=O)NC2CCCC2)c1C	20.0	.
CCCC(=O)C1=C(N2CCN(C3=C(C(=O)CCC)C(=O)CC(C)(C)C3)CC2)CC(C)(C)CC1=O	13.0	-1.2
CC1CCCCN1C(=O)c1cc(=O)c2ccccc2o1 (stereo unspecified)	2.0	.
CC1(C)CC2(CC(C)(C)N1)OC(=O)N(Cc1ccccn1)C2(C)O (stereo unspecified)	8.0	0.1
COC(=O)C1(c2ccccc2)NC(c2ccccc2C)C2C(=O)N(C)C(=O)C21 (stereo unspecified)	4.0	-3.4
NC(N)=NC(N)=Nc1cccc(F)c1	.	1.3
Cc1ccc2nc(-c3ccc(NC(=O)c4cccc([N+](=O)[O-])c4)cc3)sc2c1	.	-0.2
c1ccc(-c2nc(COc3ncnc4sccc34)cs2)cc1	-19.0	.
CCCc1cnc(N2CCCNCC2)nc1	.	-0.4
Cc1nnc(SCc2cc(=O)oc3cc(O)ccc23)s1	8.0	.
CSc1ncc(Cl)c(C(=O)Nc2sc3c(c2C(=O)NCc2ccco2)CCCC3)n1	-46.0	.
CC(=O)Oc1ccccc1C(=O)OCC(=O)c1ccc(OCc2ccccc2)cc1	-5.0	.
CN(C)c1ccc(/C=C2\SC(=O)N(Cc3ccccc3)C2=O)cc1	-13.0	-2.1
CC1=C(C#N)C(c2ccc(C#Cc3ccccc3)s2)C2=C(CCCC2=O)N1 (stereo unspecified)	11.0	.
N#Cc1ccccc1NCc1ccccc1	-6.0	.
N#C/C(=C\c1cn(Cc2ccccc2)c2ccccc12)C(=O)Nc1ccccc1O	3.0	4.2
O=c1c(-c2nc(-c3ccc(Cl)cc3)no2)cnc2n1CCS2	-1.0	.
Cc1cc(C)nc(NS(=O)(=O)c2ccc(NC(=O)C3(c4ccccc4)CCOCC3)cc2)n1	-8.0	1.2
O=C1S/C(=C\c2ccccc2)C(=O)N1CCN1C(=O)S/C(=C\c2ccco2)C1=O	6.0	.
COC(=O)C1=C(Nc2ccccc2NC(=O)c2cccs2)CSC1	.	-3.4
CCCN1CCN(C(=O)c2cccc3c2C(=O)N(CCOC)C3)CC1	18.0	.
O=C(CSc1cccc[n+]1[O-])N1CCc2ccccc21	14.0	-2.0

Single records, as listed above:
`O=C(CSc1cccc[n+]1[O-])N1CCc2ccccc21` is entered as S aureus helic = 14.0; MgrA DNA FP = -2.0
`COC(=O)C1=C(Nc2ccccc2NC(=O)c2cccs2)CSC1` is entered as S aureus helic = .; MgrA DNA FP = -3.4
`CCCN1CCN(C(=O)c2cccc3c2C(=O)N(CCOC)C3)CC1` is entered as S aureus helic = 18.0; MgrA DNA FP = .

More compounds:
SMILES	S aureus helic	MgrA DNA FP
CCOC(=O)COc1ccc(C)c2c1CCC2	.	-1.2
CCCCCCCC1CCC(=O)O1 (stereo unspecified)	-22.0	.
CC(=O)Nc1nn2c(-c3ccco3)nnc2s1	7.0	0.6
Clc1ccc(CN2CCCN(c3ncnc4scc(-c5ccccc5)c34)CC2)cc1Cl	.	-2.9
OCn1nc(-c2ccccc2Br)oc1=S	7.0	.
N#CCCSc1nnc(Cc2cccc3ccccc23)n1C1CCCCC1	8.0	.
COC(=O)Cc1cc(=O)oc2cc(O)ccc12	13.0&11.0	.
COc1ccc(C(=O)Nc2cc3c4c(c2)CCC(=O)N4CCC3)cc1OC	9.0	.
O=C(O)c1ccc(S(=O)(=O)C(F)F)cc1	-7.0	.
Cc1ccc(NC(=O)c2sc3nc(SCC(=O)NCc4ccco4)n(N)c(=O)c3c2C)c(C)c1	-2.0	.
Cc1nc(SC(C)C(=O)NC2CC2)n(C2CCCC2)c1C (stereo unspecified)	-7.0	.
N#Cc1cn(CC(=O)Nc2ccc(Br)cc2)c2ccccc12	6.0	-3.6
CC1CCc2c(nc3nc[nH]n3c2=O)C1 (stereo unspecified)	4.0	-3.1
CN(C)c1nc2ncnc(N)c2[nH]1	-9.0	-1.5
CC(C)(C)c1ccc(C(=O)/C=C2\NC(=O)CS2)cc1	.	3.8

Among those listed so far, 2 contain bromine:
SMILES	S aureus helic	MgrA DNA FP
OCn1nc(-c2ccccc2Br)oc1=S	7.0	.
N#Cc1cn(CC(=O)Nc2ccc(Br)cc2)c2ccccc12	6.0	-3.6

New compounds follow:
SMILES	S aureus helic	MgrA DNA FP
Cc1ccc(COc2ccc3c(c2)OCO3)cc1	-16.0	.
O=C1C2C(C(=O)N1CCO)C1C=CC2C12CC2 (stereo unspecified)	17.0	0.0
c1ccc2c(c1)nc(N1CCOCC1)c1ccccc12	3.0	1.4
O=C(CN1CCSc2ccccc21)Nc1ccc2c(c1)OCCO2	-2.0	.
N#CC(C#N)=C1C=CN(c2ccc(Br)cc2)C=C1	-33.0	.
O=C1CC(NC(=O)N2CCn3cccc3C2c2ccccc2F)CN1c1ccccc1 (stereo unspecified)	9.0	.
FC(F)(F)c1ccc(-c2nnc(-c3ccc4nsnc4c3)o2)cc1	.	1.9
Cc1ccc(-n2ncc3c(=S)nc[nH]c32)cc1	4.0	.
Cc1cc(N2C(=O)c3ccccc3C2=O)no1	16.0	.
Cc1nc(/C(N)=N/O)c(C(F)(F)F)o1	-12.0	.
O=C(NCCC1=CCCCC1)c1ccc(Cl)cc1	2.0	2.0
N#CC(c1ccc(Cl)cc1)c1ncc(C(F)(F)F)cc1Cl (stereo unspecified)	.	-0.7
COC(=O)C(NC(=O)Nc1ccccc1)C(C)C (stereo unspecified)	9.0	-1.4
COC(=O)C1=NN(c2c(C)cccc2Cl)C(=O)C1	.	0.8
N#CCCn1cc(C(=O)CN2C(=O)NC(c3ccccc3)(c3ccccc3)C2=O)c2ccccc21	-10.0	.
CC(C)n1nc(C(=O)OCc2cc(=O)n3c4c(sc3n2)CCCC4)c2ccccc2c1=O	2.0	.
Cc1cc(C)c(C#N)c(=N)o1	16.0	.
CCOC(=O)c1oc2c(CN3CCN(C)CC3)c(O)ccc2c(=O)c1-c1ccc(OC)c(OC)c1	7.0	.
CCOc1cc(C(=O)CCC(=O)NCc2ccco2)ccc1O	-13.0	.
O=C(NC(=O)C(F)(F)F)NC1(C(F)(F)F)OCCO1	19.0	.
O=C(CN1C(=O)CCC1=O)Nc1nc2ccccc2s1	-7.0	.
O=C1/C(=C/c2ccc(-c3cc(Cl)ccc3Cl)o2)NC(=S)N1c1ccccc1	.	5.0
CCC(Cc1ccccc1)NC(=O)c1ccco1 (stereo unspecified)	10.0	-0.8
COC(=O)CSc1nc(-c2ccccc2)nc2c1Cc1cc(Br)ccc1O2	19.0	-1.5
N#CC(c1ccccc1)c1cccc(Cl)n1 (stereo unspecified)	.	-0.8
N#Cc1ccc2c(c1)nc1c3cccc4cccc(c(=O)n21)c43	-20.0	2.8
CC(Oc1ccc(Cl)cc1)c1ccc(C#N)c(=O)[nH]1 (stereo unspecified)	.	2.8
CCOC(=O)N1CCN(C(=O)Cc2cccs2)CC1	14.0	-0.5
O=S(=O)(c1ccccc1)c1ccc2c(c1)Sc1ccccc1N2	-12.0	.
CCN(Cc1ccccc1)C(=O)c1oc(=O)c2ccccc2c1-c1ccc(C)cc1	7.0	-0.3
COC(=O)CSc1nnc2[nH]c(=O)cc(C)n12	5.0	.
CC1=C(C(=O)OCC(C)C)C(c2cc3c(cc2[N+](=O)[O-])OCO3)C2=C(CC(c3ccccc3)CC2=O)N1 (stereo unspecified)	.	2.6
OCc1cn(CC(O)COc2ccccc2Cl)c2ccccc12 (stereo unspecified)	4.0	-3.0
Cc1ccc(NC(=O)COc2ncnc3ccccc23)cc1C	-36.0	-2.1
CCOC(=O)Nc1oc2ccccc2c(=O)c1CN1CCOCC1	8.0	-1.5
COc1ccc2c(C)nc(/N=C(/N)NC(=O)c3ccccc3)nc2c1	22.0	.
CSc1ccc([N+](=O)[O-])cc1-c1ccn[nH]1	.	-1.5
S=C(N/N=C/c1ccccc1Cl)NC1CC2CCC1C2 (stereo unspecified)	.	2.5
CCNC(=O)C1CCCc2c1[nH]c1ccc(Cl)cc21 (stereo unspecified)	5.0	1.5
O=C(O)C(Sc1ncccn1)c1ccccc1 (stereo unspecified)	5.0	.
O=C(CSc1ccc2c(c1)OCCO2)NCC1COc2ccccc2O1 (stereo unspecified)	14.0	.
C=CCn1c(=S)[nH]c2ccccc21	-3.0	.
COc1cccc(-n2c(SCC(=O)Nc3ccccc3)nc3c(oc4ccccc43)c2=O)c1	3.0	2.8
N#CC1=C(N)Oc2n[nH]c(C(F)(F)F)c2C1c1cccnc1 (stereo unspecified)	4.0	.
Cc1ccnc(NCn2cnc3ccccc32)c1	-9.0	0.5
O=C(NCCNc1ccc2ccccc2c1)c1cccn2c(=O)c3sccc3nc12	4.0	2.4
O=C(O)c1ccccc1NCn1nnc2ccccc21	9.0	-2.7
COC(=O)c1cc(OC)c(OC)cc1NC(=O)CC1CCCCC1	7.0	1.1
O=S1(=O)CCC(S(=O)(=O)C2CCS(=O)(=O)C2)C1 (stereo unspecified)	12.0	-4.7
CCCc1cc2c(=O)c(-c3csc(C)n3)coc2cc1O	2.0	.
Cc1ccc(Cn2cc(CCC(=O)O)c3ccccc32)cc1	-5.0	2.0
CCOC(=O)c1csc(-c2sccc2COc2ccccc2)n1	5.0	.
CCCCN(c1ncnc2onc(-c3ccc(F)cc3)c12)C1CCN(C(C)=O)CC1	22.0	.
COCCOC(=O)c1c(C)oc2cc(Br)c(OCC(=O)c3ccc(OC)cc3)cc12	-1.0	3.1
O=C1NS(=O)(=O)c2ccccc2S(=O)(=O)c2ccccc21	5.0	.
CCCN1C(=O)/C(=N\OCC(=O)N2CCCc3ccccc32)c2ccccc21	15.0	.
N/N=C/C1=C(N2CCOCC2)C(=C\c2ccccc2)/CC1	-86.0	.
O=C(O)CC(c1ccccc1)c1cc(Br)ccc1O (stereo unspecified)	13.0	.
Cc1cccc(C(=O)N(CCN2C(=O)c3ccccc3C2=O)c2cccc3ccccc23)c1	-17.0	-0.9
CCc1cccc(C)c1N=C(C#N)C1=C(O)c2ccccc2C1=O	.	-0.8

Some values from the list.
N/N=C/C1=C(N2CCOCC2)C(=C\c2ccccc2)/CC1 in S aureus helic is entered as -86.0
O=C1NS(=O)(=O)c2ccccc2S(=O)(=O)c2ccccc21 in S aureus helic is entered as 5.0

Additional entries:
SMILES	S aureus helic	MgrA DNA FP
O=S1(=O)CCN(Cc2ccccc2)CC1	.	1.9
Nc1nn2cc(-c3ccccc3)nc2s1	1.0	-0.3
COc1ccccc1N1CCN(CC(=O)N2CCCC2)CC1	4.0	-7.9
CC1CCN(Cn2nc(-c3ccc(F)cc3)oc2=O)CC1	-5.0	.
Cc1ccc(OCC(=O)NCCO)c(C)c1	-2.0	.
O=C(Cn1c(=O)sc2ccccc21)Nc1nc2c(s1)CCCC2	-3.0	-1.2
Clc1ccc(CSc2ncnc3sc4c(c23)CCCC4)c(Cl)c1	.	0.7
COc1ccc(NC(C)=O)cc1Cl	.	0.6
O=[N+]([O-])c1cc(C(F)(F)F)ccc1N1CCSCC1	.	-0.1
O=C(CN1CCCC1)Nc1ccc(F)cc1	12.0	-37.5
C=CCN1C(=O)C(C)(C)N(C(C)=O)c2ccccc21	-8.0	3.6
CCC(C)c1ccc(NC(=O)COC(=O)c2ccco2)cc1 (stereo unspecified)	-4.0	-0.1
CSCCn1c(-c2ccccc2)cc(C(=O)N2CCCCC2)c1C	.	-0.1
CCOC(=O)c1sc(N/N=C/C2CC=CCC2)nc1C (stereo unspecified)	-1.0	0.8
CN1C(=O)C2C=CC=CC2N=C1SCC(N)=O (stereo unspecified)	6.0	0.7
Cc1ccc(NC(=O)CC(C)N2CCCC2)cc1 (stereo unspecified)	.	0.5
CCOC(=O)COc1nc(-c2ccccc2)sc1C(=O)OCC	44.0	.
Cc1cc(C)nc(SCC(=O)N2CCOCC2)n1	16.0	2.3
CC1CCN(S(=O)(=O)c2cc(Cl)c(Cl)cc2Cl)CC1	.	-1.8
CCc1nc2ccccc2c2nc(NC(=O)C(F)(F)F)nn12	12.0	-6.3
C/C(=N\Nc1ccccc1)c1ccc(-c2ccccc2)cc1	.	0.4
COc1ccc(-n2cc(C#N)c(=O)[nH]c2=O)cc1	-21.0	.
COc1ccc(O)c(-c2cn[nH]c2-c2cccs2)c1	1.0	1.4
Cc1ccccc1CN1C(=O)C(O)(CC(=O)c2ccc3c(c2)CCCC3)c2ccccc21 (stereo unspecified)	11.0	1.2
O=C(COC(=O)Cn1cnc2ccccc2c1=O)NC1CCCC1	18.0	.
CN1C2=C(C#N)C(=O)C(c3ccccc3)N2c2ccccc21 (stereo unspecified)	11.0	.
Cc1nn(-c2ccccc2)c(C)c1-c1nnc(-c2ccc(Cl)cc2)o1	.	-0.8
CC1C(O)=C(c2nc3ccccc3[nH]2)C(=N)N1c1ccccc1 (stereo unspecified)	19.0	6.8
O=C1C(C=NCCCN2CCOCC2)=C(O)c2ccccc21	-5.0	.
Oc1oc(-c2ccc(Br)cc2)nc1C=Nc1ccccc1	6.0	4.0
Cc1ccc(N=Cc2nc(-c3ccccc3Br)oc2O)c([N+](=O)[O-])c1	.	1.2
COc1ccc(OC)c(S(=O)(=O)NCc2cccnc2)c1	7.0	.
